High-throughput results (PubChem)
DT40 TDP1 CPT = qHTS for Inhibitors of human tyrosyl-DNA phosphodiesterase 1 (TDP1): qHTS in cells in presence of CPT; actives 12% (n = 420,000); AID 686979, 2013; chicken DT40 Tdp1-/-;hTDP1 cells + 20 nM CPT, ATP luminescence, 48 h; Potency, µM (series often up to 46.2 µM), inactives show top-dose activity change, negative = growth inhibition, most hits filed as inhibitors; active = well fitted inhibition curve with a large enough effect; note: nearly all actives have a fitted effect of over 55% in size
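Cell growth measured by CellTiter-Glo luminescence after a minimum 48 h, 37 C compound exposure with 20 nM CPT in Tdp1-knockout DT40 cells stably expressing hTDP1, seeded 400/well; qHTS titration format.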
The depositor's hits bear a star. % is set by controls: 0 for no effect and ±100 for the full control effect; potency is the fitted concentration of half-maximal effect. An excerpt, and most or all hits are left out here.

mol | DT40 TDP1 CPT
O=C(O)c1ccc(COc2c(F)c(F)cc(F)c2F)o1 | -6%
Cc1cccc(N(CC(=O)NC2CCCC2)C(=O)CCCC(=O)Nc2ccccn2)c1 | 1%
O=C(CCc1nnc2n(Cc3ccc(F)cc3)c(=O)c3ccccc3n12)NCCCN1CCOCC1 | -11%
C=CCN1N=C(/C=C/c2ccc(OC)cc2)CCC1=O | 8%
COc1ccc(S(=O)(=O)N2CCSC2)cc1C | 2%
Nc1c(N(Cc2ccccc2)C(=O)CCc2ccccc2)c(=O)[nH]c(=O)n1Cc1ccccc1 | -17%
Cc1cc(C)n(C(=O)c2cc(F)c(F)cc2C)n1 | -2%
CCn1c(SCC(=O)c2ccc3ccccc3c2)nnc1-c1ccco1 | -23%
O=C(NCc1ccncc1)C(=O)NCC1OCCCN1S(=O)(=O)c1ccccc1 (stereo not given) | -1%
Cc1ccc(NC(=O)CN2C(=O)NC(C)(c3ccc4c(c3)OCO4)C2=O)cc1 (stereo not given) | -1%
Cn1cnnc1SCC(=O)Nc1cccc(S(=O)(=O)N2CCOCC2)c1 | -1%
Cc1cc(C)n(-c2nc(-c3ccc(Cl)cc3)cs2)n1 | -11%
Nc1nc(N2CCN(C(=O)c3ccco3)CC2)nc2ccccc12 | -15%
CCC1(CC)Cc2ccccc2C(=C(C#N)C#N)N1 | 1%
COc1cccc(C2C(C(=O)NCc3ccccc3)=C(C)Nc3ncnn32)c1 (stereo not given) | -4%
COCCN(C(=S)Nc1cccc(OC)c1)C(C)c1cccs1 (stereo not given) | -24%
CC(C)C(NS(=O)(=O)c1ccccc1F)C(=O)N1CCc2ccccc2C1 (stereo not given) | -2%
CCCNC(=O)C1CC(=O)N(c2ccc(OCC)cc2)C1 (stereo not given) | -18%
CC[C@H](C)[C@@H](C(=O)N1CCNCC1)n1cc([C@@H](N)CO)nn1 | -26%
COc1cccc(NC(=O)CN(C)S(=O)(=O)c2ccc(C)cc2)c1 | -13%

(continued)
mol | DT40 TDP1 CPT
CCN1CCN(C(CNC(=O)c2ccc3c(c2)OCO3)c2cccnc2)CC1 (stereo not given) | -9%
COc1cc(/C=N/NC(=O)c2ccncc2)ccc1OC(=O)c1ccccc1Cl | -26%
O=C(CCN1C(=O)c2ccncc2C1=O)Nc1ccc2c(c1)OCCO2 | -17%
CCCCCCNC(=O)c1ncn[nH]1 | 6%
C=CCC1CCCCC12NC(=O)N(c1ccccc1)N2 (stereo not given) | -6%
CS(=O)(=O)N1CCC(C(=O)Nc2ccc(C(N)=O)cc2)CC1 | 6%
COc1cc(C(=O)OC(C)CN2CCCC2)cc(OC)c1OC (stereo not given) | -8%
Cc1cc(C)c(S(=O)(=O)c2ccccc2)c(N(C)C)n1 | 2%
O=C(COc1ccc(Br)cc1)Nc1nnc(C2CC2)s1 | -9%
O=C(Nc1nc(-c2ccccc2)cs1)c1cccc(S(=O)(=O)N2CCN(Cc3ccccc3)CC2)c1 | -8%
Cc1ccc(OCc2nnc(NC(=O)c3ccco3)s2)c(C)c1 | -10%
CCOc1ccc(OCC)c(C2C(C#N)=C(N)N(c3cccnc3)C3=C2C(=O)CC(C)(C)C3)c1 (stereo not given) | -5%
Cc1ccc(NC(=O)N2CCN(Cc3ccc4c(c3)OCO4)CC2)cc1 | -11%
COc1ccc(C(=O)NCC(=O)OCC(=O)NCc2cccs2)cc1 | -11%

Grouped by structure: the compounds so far with sulfur.
mol | DT40 TDP1 CPT
COc1ccc(S(=O)(=O)N2CCSC2)cc1C | 2%
CCn1c(SCC(=O)c2ccc3ccccc3c2)nnc1-c1ccco1 | -23%
O=C(NCc1ccncc1)C(=O)NCC1OCCCN1S(=O)(=O)c1ccccc1 (stereo not given) | -1%
Cn1cnnc1SCC(=O)Nc1cccc(S(=O)(=O)N2CCOCC2)c1 | -1%
Cc1cc(C)n(-c2nc(-c3ccc(Cl)cc3)cs2)n1 | -11%
COCCN(C(=S)Nc1cccc(OC)c1)C(C)c1cccs1 (stereo not given) | -24%
CC(C)C(NS(=O)(=O)c1ccccc1F)C(=O)N1CCc2ccccc2C1 (stereo not given) | -2%
COc1cccc(NC(=O)CN(C)S(=O)(=O)c2ccc(C)cc2)c1 | -13%
CS(=O)(=O)N1CCC(C(=O)Nc2ccc(C(N)=O)cc2)CC1 | 6%
Cc1cc(C)c(S(=O)(=O)c2ccccc2)c(N(C)C)n1 | 2%
O=C(COc1ccc(Br)cc1)Nc1nnc(C2CC2)s1 | -9%
O=C(Nc1nc(-c2ccccc2)cs1)c1cccc(S(=O)(=O)N2CCN(Cc3ccccc3)CC2)c1 | -8%
Cc1ccc(OCc2nnc(NC(=O)c3ccco3)s2)c(C)c1 | -10%
COc1ccc(C(=O)NCC(=O)OCC(=O)NCc2cccs2)cc1 | -11%
